Screening data: PubChem, SRMLSC
H5N1 antiviral = MDCK cell protection from H5N1 avian flu; cytopathic effect, luminescence, 72 h; hits give high values; no value below 0 was filed and about half of the inactive calls have no number; reference of the scale not given here; inhibition, % at 50 µM; hit rate 0.07% among 96,000; AID 740; in the data active = inhibition above about 25%
* = called active by the depositor; i = inactive. Some of the compounds tested, so the mix of outcomes need not match the whole.

SMILES	H5N1 antiviral
O=C(NCc1ccccc1)c1ccc2c(=O)n(CC3CCCO3)c(=S)[nH]c2c1 (configuration not stated)	0.3
CCOC(=O)C(NC(=O)CC)(Nc1ccc(S(=O)(=O)Nc2ncccn2)cc1)C(F)(F)F (configuration not stated)	i
Cn1nnnc1SCc1ccc(C(=O)Nc2ccc(Br)cc2)cc1	i
CC(=O)c1ccc(NC(=O)c2noc3c2CCCCC3)cc1	i
COc1ccc(C(=O)NC2CC3CCCC(C2)N3CC(C)C)cc1OC (configuration not stated)	0.4
Cc1nc2c(Cl)cccc2[nH]1	i
Cc1csc(-c2cnn(-c3ccccc3)c2NC(=O)c2ccccc2)n1	i
CCOC(=O)c1c(N)sc(C(=O)N2CCOCC2)c1C	i
CCN(CC)c1ccc(NC(=O)CN2CCN(CC(=O)Nc3ccc(F)cc3)CC2)cc1	i
CC(=O)Oc1cccc(N2C(=O)C3CC=CCC3C2=O)c1 (configuration not stated)	0.7
CCN1CCN(C(c2cccnc2)c2cc(Cl)c3cccnc3c2O)CC1 (configuration not stated)	0.2
CCn1c(SCC(=O)Nc2ccccc2C(=O)OC)nnc1-c1ccc(N)cc1	2.0
Cc1ccc(CSc2nc3c(c(N(C)C)n2)CCCC3)cc1	1.3
CCn1c(C)c(C(C)=O)c(N2CCC(C(N)=O)CC2)nc1=S	0.6
ON1C2CCCCC2N(O)C1c1ccccc1C(F)(F)F (configuration not stated)	i
CC(C)CO/C(=N/S(=O)(=O)c1ccccc1)c1ccccc1	i
O=C(CSc1ncc(-c2ccc(F)cc2)n1Cc1ccco1)Nc1ccc2c(c1)OCO2	0.5
Cn1c(=O)[nH]c(=O)c2c1nc(N1CCCCC1)n2CCSc1nc2ccccc2o1	1.6
COc1ccc(S(=O)(=O)Nc2ccc(S(=O)(=O)N3CCCCC3)cc2)cc1C	4.1
CCOC(=O)c1c(C)[nH]c(C(=O)OCC(=O)N2CCN(S(=O)(=O)c3ccccc3)CC2)c1C	i
O=C(CSc1nc2ccccc2c(=O)n1CC1CCCO1)NCC1CCCO1 (configuration not stated)	i
N=C1C(c2ccccc2)=C(O)CN1Cc1ccco1	0.8
CC(C)n1c(N2CCN(CC(=O)NCc3cccs3)CC2)nc2ccccc21	i
Clc1cccc2sc(N3CCCCC3)nc12	i
CC(C)CC(=O)NC(=S)Nc1ccccn1	i
New compounds follow.
SMILES	H5N1 antiviral
CC(=O)NC(NC(=S)Nc1ccc(N=Nc2ccccc2)cc1)C(Cl)(Cl)Cl (configuration not stated)	0.7
Fc1ccc2c(c1)nnn2C1CCN(Cc2ccccc2)CC1	0.3
NS(=O)(=O)c1cccc(NC(=O)CSc2ccccn2)c1	1.1
Cc1ccc(C(C(=O)NC(C)(C)C)N(CC2CCCO2)C(=O)Cn2nnc(-c3ccc(C)o3)n2)cc1 (configuration not stated)	i
Nc1c(C(=O)NCc2ccccc2)nnn1Cc1ccccc1	i
C=CCc1c(C)c(C#N)c2nc3ccccc3n2c1NCCN(C)C	1.6
Cc1cccc(C)c1NC(=O)/C(C#N)=C/c1cccs1	i
Cc1noc(C)c1COC(=O)CCC(=O)c1ccc(F)cc1	0.6
COc1ccc(C)cc1S(=O)(=O)Nc1cccc(SC)c1	1.3
CCOC(=O)C1=C(C)NC2=C(C(=O)CCC2)C1c1cccs1 (configuration not stated)	0.4
COc1ccc(N(CC(=O)NC(C)C)S(=O)(=O)c2ccc(NC(C)=O)cc2)cc1	i
Cc1nc2sccn2c(=O)c1Cl	i
CC(C)CN(CCC(=O)O)CC(C)C	0.3
CCOc1ccc(Nc2ncnc3c2cnn3-c2ccccc2)cc1	2.6
CC1CN(Cc2ccc(Cl)cc2Cl)CC(C)O1 (configuration not stated)	i
CC(C)Nc1nc(Cl)nc(NNC(=O)C(C)Oc2ccccc2)n1 (configuration not stated)	i
CSc1ccc(-c2nnn(Cc3ccc(C)cc3)n2)cc1	i
CCC1(CC)Nc2ccccc2C(=O)N1c1ccc(NC(C)=O)cc1	i
Cc1ccc(NC(=O)c2cc(C)on2)cc1	i
CCS(=O)(=O)NCC(c1cccnc1)N1CCN(c2ccc(F)cc2)CC1 (configuration not stated)	0.2
Cc1cc(C(=O)N2CCOCC2)n(-c2ccccc2)n1	1.5
COc1cc(/C=N/n2cnnc2)ccc1OCc1ccc(C)cc1	i
COc1cccc(CNn2c(-c3cccc(C)c3)nc3ccccc3c2=O)c1	0.7
CC1(C(=O)NC2CCCC2)CCC(=O)N1Cc1ccccc1Cl (configuration not stated)	i
CCCc1cc(C(N)=O)c(NC(=O)C2CCCO2)s1 (configuration not stated)	0.2
Going on with the list:
SMILES	H5N1 antiviral
CC(C)Cn1c(=O)[nH]c2ccccc21	0.3
CC(=O)N1CCN(C2=Nc3cccc4cccc2c34)CC1	0.1
Cc1ccc(C(C)C)c(Oc2nnnn2-c2ccccc2)c1	2.2
COc1ccc(OC)c(S(=O)(=O)N2c3cc(F)ccc3CCC2C)c1 (configuration not stated)	0.6
Cc1cc(C)n(C(=O)CNC(=O)c2cccs2)n1	0.2
O=C(Nc1ccc(NC(=O)C2CC2)nc1)c1ccco1	2.1
O=C(COc1cc(Cl)c(Cl)cc1Cl)NC(=O)NC1CCCC1	i
Cc1c(Cl)cccc1NC(=O)CC(C(=O)O)C1CCCO1 (configuration not stated)	1.0
CCOC(=O)c1c(NC(=O)CSc2nnc(-c3ccc(C)cc3)o2)sc(C(C)=O)c1C	i
Cc1cccc(NC(=O)c2ccc3ccccc3n2)c1C	i
O=C(NCc1ccccn1)c1c(O)c2c([nH]c1=O)CCCC2	0.9
CC(C)CCNC(=O)CCNS(=O)(=O)c1ccc(Cl)cc1	1.2
O=C(NC1CCCCC1)c1ccc(S(=O)(=O)N2CCOCC2)cc1	0.9
CC(=O)c1c(C)[nH]c(C(=O)OCC(=O)N2CCN(S(=O)(=O)c3ccc(C)cc3C)CC2)c1C	i
CC(=O)OC(C(=O)NCc1ccc2c(c1)OCO2)c1ccccc1Cl (configuration not stated)	i
CCOC(=O)c1c(N)sc(=S)c2c1CCC2	0.3
Cc1ccccc1N1C(=O)c2cccc3c(N(C)CCO)ccc(c23)C1=O	2.4
Fc1cccc(Cl)c1Cn1nnc(-c2ccc(N3CCOCC3)cc2)n1	0.1
CCOc1ccc2[nH]c(=O)c(CN(Cc3nnnn3CCc3ccccc3)CC3CCCO3)cc2c1 (configuration not stated)	8.0
CC1CCN(S(=O)(=O)c2ccc(Br)s2)CC1	0.9
COc1ccc(N/C(=N\c2nc(C)cc(C)n2)NC(=O)C(C)C)cc1OC	1.1
CCCN(CCC)CCNC(=O)c1cc2c(=O)n(C)c3ccccc3c2n1C	5.5
COc1ccc(Nc2nc(-c3sc(NC(C)=O)nc3C)cs2)cc1	i
Cc1ccc(S(=O)(=O)N2CCOCC2)cc1C(=O)Nc1c(C)n(C)n(-c2ccccc2)c1=O	0.3
COc1ccc([N+](=O)[O-])cc1NC(=O)CC(C)c1ccccc1 (configuration not stated)	i
The results go on:
SMILES	H5N1 antiviral
CC1CN(C(=O)Cn2cnc3c2c(=O)n(C)c(=O)n3C)CC(C)O1 (configuration not stated)	1.2
N#Cc1c(NC(=O)CCC(=O)O)sc2c1CCCC2	i
COCCn1c(CN2CCN(c3ccc(OC)cc3)CC2)nc2c1c(=O)n(C)c(=O)n2C	1.9
CCCC(=O)NC(Nc1cc(C(F)(F)F)ccc1Cl)C(Cl)(Cl)Cl (configuration not stated)	3.6
COc1ccc(CNC(=O)CSc2nnnn2Cc2ccccc2)cc1	i
COc1ccc(OC)c(Nc2nc(-c3cccs3)cs2)c1	i
O=C(O)CCC(=O)N1CCN(c2nc3ccccc3s2)CC1	i
N#Cc1c(-c2ccccc2)nc2n(-c3ccccc3)nc(C(=O)Nc3ccccc3)n2c1=O	1.3
C=CCn1c(SCc2nc3c(c(=O)[nH]c(=O)n3CCCC)n2CCC)nnc1-c1ccccc1	0.0
O=C(CSc1nc2ccccc2[nH]1)Nc1ccc(F)cc1	i
COc1ccc(N2C(=O)CCC(C(=O)N3CCC(C(N)=O)CC3)C2c2ccc(F)cc2)cc1 (configuration not stated)	i
Cc1sc2nc(SCC(=O)c3cc(C)n(CC4CCCO4)c3C)n(C(C)C)c(=O)c2c1C (configuration not stated)	0.5
CC(C)(C)n1ncc2c(=O)n(CC(=O)N3CCc4ccccc43)cnc21	i
COc1ccc(N(CC(O)CN2CCCCC2)S(=O)(=O)c2ccc(C)cc2)cc1 (configuration not stated)	i
Fc1ccccc1CSc1nc2ncc(Br)cc2[nH]1	i
N#Cc1ccc(-c2ccc(F)cc2)nc1Oc1ccc(F)cc1	0.0
Cc1[nH]c2ccc(-c3nnc(SCC(=O)N4CCCc5ccccc54)o3)cc2c1C	0.6
CCCCn1c(N)c(-c2nc3ccccc3s2)c2c([N+](=O)[O-])nn(C)c(=O)c21	i
CCN(CC)Cc1c(O)ccc2c(=O)c(-c3ccc4c(c3)OCCO4)coc12	0.2
Cc1c(NS(C)(=O)=O)c(=O)n(-c2ccccc2)n1C	i
CCOC(=O)Cc1csc(NC(=O)c2ccc3c(c2)OCO3)n1	i
O=C(COC(=O)C1(c2ccc(Cl)cc2)CCCC1)NC1CCS(=O)(=O)C1 (configuration not stated)	0.1
O=C(O)c1nn2c(c1Br)NC(c1ccccc1)CC2C(F)(F)F (configuration not stated)	i
Cc1ccc(NC(=S)NNC(=O)Cn2nc([N+](=O)[O-])cc2C)cc1	0.1
COc1nc(-c2ccc(C)cc2)ccc1-c1noc(-c2ccco2)n1	i
Next part
SMILES	H5N1 antiviral
CCOC(=O)c1[nH]nc(C(=O)c2ccc(Br)cc2)c1O	i
CC(C)(CO)N=Cc1c(O)[nH]c2ccccc12	0.6
CCSC1=C(C#N)C(c2ccc(Cl)cc2)C2=C(CCCC2=O)N1 (configuration not stated)	i
COc1ccc2sc(N3C(=O)CC(Cc4cccc(C)c4)C3=O)nc2c1 (configuration not stated)	i
CC(=O)N(Cc1ccco1)C1(C(=O)NC2CCCC2)CCCCC1	0.3
O=C1c2ccccc2C(=O)N1Cc1cc(-c2ccccc2)no1	i
Oc1cc2c(cc1CN1CCN(c3cccc(C(F)(F)F)c3)CC1)CCC2	i
Clc1ccc(OCCn2ccnc2)c(Br)c1	i
Cc1ccc(S(=O)(=O)N2CCC(C(=O)N3CCC(C(=O)NCc4cccnc4)CC3)CC2)cc1	1.3
COc1cccc(NC(=O)C2CCCN2C(=O)OCc2ccccc2)c1 (configuration not stated)	0.2
CN(C)c1ccc(NC(=S)NC(=O)/C=C/c2ccc(Cl)cc2)cc1	i
CCOC(=O)Nc1ccc(=O)n(Cc2c(Cl)cccc2Cl)c1	0.4
N/C(Cc1ccc([N+](=O)[O-])cc1)=N\OC(=O)c1ccc2ccccc2c1	0.8
COc1cccc(NC(=O)N(C2CCCCC2)C(C)c2cccs2)c1 (configuration not stated)	0.4
CCCc1nc(Nc2nc3ccccc3o2)nc(C)c1C(=O)OCC	i
COc1ccccc1NC(=O)CC1Nc2ccccc2NC1=O (configuration not stated)	1.3
CC1Oc2ccccc2N(CC(=O)Nc2ccc3c(c2)OCO3)C1=O (configuration not stated)	i
CCOC(=O)CSCc1c(C#N)c2ccccc2n1C	2.5
Cc1cccc(N2CN=c3s/c(=C\c4ccncc4)c(=O)n3C2)c1	7.2
Cc1cccc(C(C)(C)C)c1OCCn1ccnc1	2.4
COc1ccc(-c2nn[nH]n2)cc1OC	1.4
CCn1c(COc2cccc(OC)c2)nnc1SCC(=O)Nc1cc(OC)ccc1OC	i
CCN(CC)S(=O)(=O)c1ccc2c(c1)nc(SCC(=O)NC1CC1)n2-c1ccccc1OC	1.3
CCOc1ccc(-c2nnc(NC3=NCCCCC3)o2)cc1	i
Cc1ccc(C2C(C(=O)c3sc(C)nc3C)=C(O)C(=O)N2CCN2CCOCC2)o1 (configuration not stated)	1.1
Next results.
SMILES	H5N1 antiviral
COc1ccc(CCn2c(O)c(C=NCc3ccc4c(c3)OCO4)c(=O)[nH]c2=O)cc1OC	i
O=C(O)CNS(=O)(=O)c1cccc2nsnc12	1.1
CCOc1ccc(N(CC(=O)Nc2ccccc2)S(C)(=O)=O)cc1	i
COCCSc1ccccc1C(=O)NCc1ccco1	2.4
COc1ccc(-c2cn3c(C)c(C(=O)Nc4cccc(NC(C)=O)c4)sc3n2)cc1	0.6
CCN(CC)C(=O)C(=O)c1cccn1-c1ccccc1C#N	0.1
CCOC(=O)c1ccc(NC(=O)CCc2nc(-c3cccc(C)c3)no2)cc1	i
